Bioassay records from PubChem.
Sa growth inh: blocks Staphylococcus aureus growth | S. aureus RN4220 growth, OD600, 20 h, 42 °C; stronger effect = lower value | relative growth, % (test concentration not listed) | hit rate 0.53% among 170,000;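 active means growth at 42 °C up to 50% and 20 or more points under that at 30 °C, or under 10% at both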;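 further: 300 nL library stock went into each well; scaled to the means of positive and negative controls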
HCMV UL50-53 inh: cytomegalovirus nuclear egress complex inhibition. HTRF UL50-UL53 interaction, normalized percent inhibition. inhibition, % (test concentration not listed). hit rate 0.15% among 190,000;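 active means both replicates at 50% or more, plus weaker picks with an unusually low signal ratio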;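 further: stock transfer was 100 nL into about 20 µL; 0% = negative control wells and 100% = wells with untagged competitor protein; inactives centre near -12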
GIV Gai3 FP: blocks GIV peptide binding to rat Galpha-i3. P08753. Galpha-i3/FITC-GIV peptide fluorescence polarization, 90 min; stronger effect = lower value; scaled: aluminum fluoride 0%, vehicle 100%. percent of control (FP), % (concentration not given with the values). hit rate 0.42% among 210,000. AID 1224905;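 active means replicate mean at 85% of control or lower, very high polarization wells dropped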;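 further: wells of about 15 µL received 100 nL stock; the first replicate is given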
Target sequence (P08753 whole entry, looked up): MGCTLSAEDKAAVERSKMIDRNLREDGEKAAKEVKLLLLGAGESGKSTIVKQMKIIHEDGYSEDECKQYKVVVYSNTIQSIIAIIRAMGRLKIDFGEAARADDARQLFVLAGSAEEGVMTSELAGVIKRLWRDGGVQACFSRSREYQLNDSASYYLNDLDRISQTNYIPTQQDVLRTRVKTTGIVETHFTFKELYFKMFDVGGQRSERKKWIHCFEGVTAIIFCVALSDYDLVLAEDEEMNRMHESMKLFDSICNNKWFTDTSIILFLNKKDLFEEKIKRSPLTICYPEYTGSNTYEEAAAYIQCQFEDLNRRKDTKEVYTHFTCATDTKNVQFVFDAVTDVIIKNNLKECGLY
Sa growth inh second temp: also measured in Sa growth inh; calls as there; relative growth, %; measured here: growth at 30 °C;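 optical density after 20 h as mean of two plates; 100% = untreated growth and lower means inhibition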
Active calls of the source: *; . = no result given; & = joins results of further samples.

Below each compound – GIV Gai3 FP	Sa growth inh second temp	Sa growth inh	HCMV UL50-53 inh
> O=C(CN1C(=O)C2CCCCN2c2ccc(C(=O)N3CCOCC3)cc21)Nc1ccc(Cl)cc1 (stereo not given)
    101	.	.	-32
> CC(C)c1cccc(C(C)C)c1OCCCN1CCOCC1
    .	94	87	-7
> CCOC(=O)COn1c(=O)c(-c2ccccc2)[n+]([O-])c2ccccc21
    100	.	.	-21
> CCc1nnc(SCC(=O)NCc2ccc(C)cc2)c2cc3sccc3n12
    99	85	112	.
> CCCCN(CCCC)CCNC(=O)c1cn(CC)c2ccc(S(=O)(=O)N3CCc4ccccc4C3)cc2c1=O
    98	87	109	2
> S=c1[nH]nc2n1CCCN2
    110	101	96	-2
> COc1ccc(NC(=O)CC2=C(c3ccccc3)CCC2=O)cc1
    106	81	109	-20
> Cc1cccc(N(C)C(=O)Cc2noc3ccccc23)c1
    108	101	111	-1
> COc1ccc(C2SCC(=O)N2c2c(C)n(C)n(-c3ccccc3)c2=O)cc1OC (stereo not given)
    99	.	.	-10
> O=C(O)c1cc(N2CCN(c3ccc(F)cc3)CC2)nc2ccc(NS(=O)(=O)c3ccccc3)cc12
    101	.	.	-26
> O=C(O)CCNC(=O)Nc1ccccc1
    101	87	108	-22
> O=C(CSc1nnnn1C1CC1)N(Cc1ccccc1)Cc1ccccc1
    .	81	91	-33
> Cc1ccc2c(c1)c(-c1ccccc1)nc1nnnn12
    104	78	90	-12
> COCCCn1cnnc1SC(C)C(=O)Nc1ccc(S(=O)(=O)N2CCOCC2)cc1 (stereo not given)
    .	94	97	26
> Cc1nc2ccccc2n1C/C=C/c1ccccc1
    96	53	83	.
> Cc1ccc(N2NC(=O)CC2=O)cc1C
    .	70	101	-4
> COc1cc(Br)c(C2C(C(=O)OCc3ccccc3)=C(C)NC3=C2C(=O)CCC3)cc1OC (stereo not given)
    104	.	.	-28
> Cc1ccc(S(=O)(=O)N(C)c2c(C)ccc(S(=O)(=O)n3nc(C)cc3C)c2C)cc1
    95	98	177	-11
> CCOc1ccccc1NC(=O)Cc1csc(COc2cccc(C)c2)n1
    111&110	83	87	-7&-20
> CCCCn1c(=O)c2sccc2n2c(=O)n(CC(=O)NCc3cccc(OC)c3OC)nc12
    107	.	.	9
> Cc1c(C(=O)N2CCCC2)c(S(=O)(=O)NC2CCN(Cc3ccccc3)CC2)c(C)n1C
    99	.	.	-31
> Cc1ccccc1Nc1nn2c(=O)c3ccc(C(=O)N4CCc5ccccc5C4)cc3nc2s1
    103	74	86	-28
> COc1cc(C(=O)OCC(=O)N2CCOCC2)ccc1OCC(=O)Nc1ccc(F)cc1
    .	82	89	-31
> COc1ccccc1NC(=O)C1c2ccccc2Oc2ccccc21
    103&101	101	106	-12
> C=CCN(CC=C)C(=O)Cc1ccc(Br)cc1
    .	99	103	-8
> C/C(=C\C(=O)c1ccc(C)cc1)N1CCOCC1
    103	91	122	-8
> CCCNC(=O)C1CC(=O)N(CCc2c[nH]c3ccc(Cl)cc23)C1 (stereo not given)
    104	.	.	-12
> O=S(=O)(c1ccc(Cl)nc1)N(Cc1ccccc1)Cc1ccccc1
    .	98	82	-2
> CC(C)Cc1nnc(NC(=O)CCN2C(=O)/C(=C/c3ccc4c(c3)OCO4)SC2=S)s1
    104	.	.	-9
> CCOc1cc2sc(N3CCC(C(=O)NCCCN4CCN(C)CC4)CC3)nc2cc1Br
    103	91	114	16

The listing continues:
Below each compound – GIV Gai3 FP	Sa growth inh second temp	Sa growth inh	HCMV UL50-53 inh
> Cc1nn(C)c(C)c1S(=O)(=O)N(CC(=O)N1CCn2c1nc1ccccc12)c1ccc(C(C)C)cc1
    109	100	97	14
> CCCCn1nnnc1NCc1ccc2c(c1)n(C)c(=O)n2C
    110	.	.	-5
> O=C(CSc1oc(-c2ccco2)nc1S(=O)(=O)c1ccc(Cl)cc1)NC1CCCCC1
    101	78	91	.
> CC(C)COC(=O)n1n[n+]([O-])c2ccccc21
    .	91	93	-7
> CC1CCN(S(=O)(=O)c2ccc(-c3nc(C#N)c(N4CCOCC4)o3)cc2)CC1
    103	.	.	-42
> O=C(CCc1ccccc1)NN1CCOCC1
    105	107	102	4
> CC1CCCCC12NC(=O)N(CCCCN1C(=O)c3ccccc3C1=O)C2=O (stereo not given)
    .	95	92	-51
> CCN1CCN(C(=O)Cn2c(-c3cccs3)cc3ccccc32)CC1
    106	94	128	.
> Cc1ccc(Cl)cc1NC(=O)Cn1c(=O)oc2cc(S(=O)(=O)N3CCCC3)ccc21
    101	54	156	-8
> N#Cc1ccc(-c2cccs2)[nH]c1=S
    .	43	66	1
> CCc1cccc2c(=O)c(CN(C)C)c(C)[nH]c12
    .	101	95	3
> CO/N=C(\C(=O)N[C@@H]1C(=O)N2C(C(=O)O)=C(COC(C)=O)CS[C@H]12)c1csc(N)n1 (stereo in doubt)
    96	.	.	-20&-30
> CCNC(=O)NC(=O)Cn1cc(C(F)(F)F)ccc1=O
    .	106	97	-6
> COc1ccc(N2CCN(C(=O)Cn3cnc4sc(C)c(S(=O)(=O)N5CCCCC5)c4c3=O)CC2)cc1
    103	92	109	-23
> O=C(CC1S/C(=N\N=C2CCCCC2)NC1=O)Nc1ccc(F)cc1 (stereo not given)
    95	73	75	0
> Cc1nn2c(N3CCCC3)cc(C(C)(C)C)nc2c1-c1ccc(F)cc1
    103	.	.	-31
> Oc1ccccc1C=Nc1cccc(N=Cc2ccccc2O)c1
    100	79	109	.
> O=C(NCc1ccc(Cl)cc1)c1ccc(-n2nc(OCc3ccc(Cl)cc3)ccc2=O)cc1
    103	.	.	-30
> Cc1[nH]c(=S)sc1CC(=O)N(C)Cc1ccccc1Cl
    .	89	69	5
> COc1cc(-c2noc(-c3ccccc3)n2)ccc1OCC(=O)NC1CCCCC1
    106	.	.	-24
> Cc1ccc(N2CC(=O)N(N)CC2=O)cc1
    110	94	102	10
> CCCOC(=O)c1c(NC(=O)C2c3ccccc3Oc3ccccc32)sc2c1CCC(C)C2 (stereo not given)
    103	92	114	-5
> Nc1cccc(-c2nn(-c3ccccc3)cc2CCC(=O)O)c1
    .	96	89	10
> Cc1c(CSc2nnc(C3CC3)n2-c2ccccc2)noc1-c1ccc(F)cc1
    .	95	106	18
> CS(=O)(=O)c1ncc(Cl)c(C(=O)Nc2cccc(Cl)c2)n1
    104	0.4*	0.2*	-14
> O=C(O)CSCC(=O)N1CCCN(c2nc3ccc(Cl)cc3s2)CC1
    105	90	123	-3
> O=C(O)c1ccc(N2CCN(Cc3ccc4c(c3)OCO4)CC2)c(NC(=O)c2ccc(Cl)cc2)c1
    96	.	.	-23
> CCOC(=O)c1c(CN(CC)CC)n(-c2ccccc2)c2ccc(O)cc12
    104&97	92	106	10
> CCOC(=O)C1CCN(C(=O)c2ccc3c(c2)S(=O)(=O)c2ccccc2C3=O)CC1
    .	83	95	-139
> O=C(C1COc2cc(S(=O)(=O)Nc3ccccc3)ccc2O1)N1CCCCC1 (stereo not given)
    98	100	95	5

Going on with the list.
Below each compound – GIV Gai3 FP	Sa growth inh second temp	Sa growth inh	HCMV UL50-53 inh
> COc1ccc(C(=O)NCCc2sc(-c3ccc(Cl)cc3)nc2C)c(OC)c1
    106	99	114	.
> Cc1cc(C)c(OCC(O)CNC(C)(C)C)c(C)c1 (stereo not given)
    101	84	103	.
> Cn1c(=O)c2sccc2n2c(SCc3c(F)cccc3Cl)nnc12
    103	.	.	-36
> CC(C)CCNCC1OCc2ccccc2CO1
    .	97	114	-2
> Cc1ccc(N2CCNCC2=O)c(C)c1
    101	90	102	-14
> O=C(Cn1cc(S(=O)(=O)N2CCN(c3ccccc3F)CC2)c2ccccc2c1=O)Nc1ccc(Cl)cn1
    102	90	84	-5
> Cc1ccc(C2CCCN2C(=O)c2cc(C3CC3)on2)cc1 (stereo not given)
    111	.	.	-30
> Cc1ccc(C)c(NC(=O)C(C)N2C(=O)C3C4C=CC(C4)C3C2=O)c1 (stereo not given)
    107	95	109	-9
> O=c1cc(N2CCOCC2)oc2c(-c3ccccc3)cccc12
    104	.	.	-34&-7&-8&-11&-11&-7&-14
> Cc1csc(NC(=O)CN2C(=O)C(C)(C)c3cc(S(=O)(=O)N4CCCC4)ccc32)n1
    108	.	.	-36
> N#Cc1ccccc1-c1nnn(CC(=O)N/N=C/c2ccc3c(c2)OCO3)n1
    108	81	84	4
> COc1ccc(CCNC(=O)CN(C)c2ccccc2)cc1OC
    .	100	99	-1
> Cc1ccnc2c1NC(=O)c1cccnc1N2C1CC1
    .	83	90	-13&-87&-48
> CCOC(=O)c1ccc(Nc2cc(C)nc(-c3ccccc3)n2)cc1
    104	85	92	.
> c1ccc(CSc2n[nH]c(-c3ccncc3)n2)cc1
    101	71	105	14
> Cc1cc(C)cc(NS(=O)(=O)c2c(C)n[nH]c2C)c1
    99	86	81	-6
> Clc1ccc(N2CCN(c3ccccc3Cl)CC2)nn1
    101	.	.	-17
> CCNC(=O)Nc1c(-c2ccccc2)nc2ccccn12
    .	103	106	7
> CCc1ccccc1NC(=O)c1cc(S(=O)(=O)N2CCCc3ccccc32)ccc1F
    103	87	112	.
> CCN1CCN(C(=O)c2ccc(S(=O)(=O)N(CC)CC)cc2)CC1
    97	86	88	-6
> CCOC(=O)c1sc(=N)n(CC(=O)c2ccc(F)cc2)c1C
    .	95	106	9
> CC(C)(C)OC(=O)N1C(C(=O)O)CSC1c1cccc(Br)c1 (stereo not given)
    100	94	188	5
> Oc1ccc(Cn2cnc3ccccc32)c2cccnc12
    98	73	100	-77
> Cc1cc(C)nc(N2CCN(C(=O)c3cc(-c4ccccc4)n[nH]3)CC2)n1
    95	.	.	13
> COc1ccc(C(C)(C)C)cc1NC(=O)COC(=O)C1CCC1
    .	97	75	10
> CCOc1ccc(-c2nnc(SCC(=O)NC(C)CC)nc2-c2ccc(OCC)c(OC)c2)cc1OC (stereo not given)
    112	89	101	.
> CCOC(=O)c1ccc(S(=O)(=O)N2CCC(C(=O)OCC)CC2)cc1
    101	101	103	-2
> Nc1nc(CN2CCN(c3ccccc3)CC2)nc(Nc2ccccc2)n1
    .	95	112	-20
> COc1ccc(NC(=O)c2ccc3nc(C(C)C)oc3c2)cc1OC
    99	89	92	.
> COc1ccccc1NC(=O)Cn1c(C(F)(F)F)nc2ccccc21
    100	.	.	-18

Going on with the list.
Below each compound – GIV Gai3 FP	Sa growth inh second temp	Sa growth inh	HCMV UL50-53 inh
> Cn1c(=O)n(C)c2cc(NS(=O)(=O)c3ccc(C(C)(C)C)cc3)c(NCc3ccccc3)cc21
    100	79	91	-2
> CC1(C)CC(=O)C(C=NCCN2CCN(C(=S)Nc3ccccc3)CC2)=C(O)C1
    101	85	88	-25
> O=C(C1CCN(S(=O)(=O)/C=C/c2ccccc2)CC1)N1CCN(c2ccccn2)CC1
    .	94	90	-14
> O=C1C(Nc2ccccc2)=CC(c2ccccc2)N1c1ccccc1 (stereo not given)
    .	94	91	-1
> CC1(C)C(=O)N(CC(=O)Nc2ccc(F)cc2)c2ccc(S(=O)(=O)N3CCCC3)cc21
    100	.	.	-30
> CC(=O)Nc1ccc(NC(=O)c2ccc(-n3nnc4cccnc43)cc2)cc1
    115	.	.	-35
> O=C(CCCC1=NS(=O)(=O)c2ccccc2N1)Nc1ccc(F)cc1F
    104	.	.	-26
> CCN(CC)c1nc2c(s1)C(=O)CC(C)(C)C2
    101	79	66	-21
> CN(C1CCCCC1)S(=O)(=O)c1ccc2c(c1)c(=O)c(C(=O)N1CCN(c3ccccc3)CC1)cn2C
    105	90	109	-11
> CCN=C(NCC)Nc1ccc(Cl)cc1
    109	86	105	9
> COc1ccc(S(=O)(=O)NCC(c2cccs2)S(=O)(=O)c2ccccc2)cc1OC (stereo not given)
    99	85	131	.
> CN(CCNC(=O)c1cc(=O)[nH]c2ccc(S(=O)(=O)N3CCCCC3)cc12)Cc1ccccc1
    100	89	98	-30
> COc1cccc(CSc2nc3ccncc3n2Cc2ccc(C(=O)NCC3CCCO3)cc2)c1 (stereo not given)
    108	.	.	-32
> O=c1oc2c(-c3ccc(Br)cc3)cc(O)cc2s1
    .	32	50	-20
> CC(C)n1c(-c2ccccc2)csc1=Nc1ccccc1
    104	91	79	.
> COc1cccc(C2=CC(c3ccc(OC)c(OC)c3OC)n3ncnc3N2)c1 (stereo not given)
    103	90	111	.
> Cc1ccccc1CSc1cn(CC(=O)N2CCCCC2)c2ccccc12
    112	92	126	.
> COc1ccc(NC(=O)N(C2CCCCC2)C(C)c2ccco2)c(OC)c1 (stereo not given)
    100	61	72	-32
> CCN(CC)S(=O)(=O)c1ccc(C(=O)Nc2nc3ccc(Cl)cc3s2)cc1
    121	101	102	.
> CNC(=O)c1ccc(-c2nc(CN3CCN(C(=O)Nc4ccc(F)cc4F)CC3)c(C)o2)cc1
    106	.	.	-25
> COCCNC(=O)c1ccc(CSc2nc3cccnc3n2Cc2ccccc2)cc1
    103	.	.	-37
> CCN1C(=O)CCc2cc(NS(=O)(=O)c3ccc(C)cc3)ccc21
    106	.	.	8

Retrieved by structure from the entries so far, three records:
Below each compound – GIV Gai3 FP	Sa growth inh second temp	Sa growth inh	HCMV UL50-53 inh
> CC(=O)Nc1ccc(NC(=O)c2ccc(-n3nnc4cccnc43)cc2)cc1
    115	.	.	-35
> CCN(CC)c1nc2c(s1)C(=O)CC(C)(C)C2
    101	79	66	-21
> O=c1oc2c(-c3ccc(Br)cc3)cc(O)cc2s1
    .	32	50	-20
